Calb FLC – affects C. albicans growth with fluconazole; C. albicans CaCi-2 (fluconazole-resistant clinical isolate) + fluconazole, Alamar Blue growth, 48 h; growth inhibition, % (concentration not given with the values); 300,000 compounds, 0.57% hits; AID 1979;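 active means most replicates above 75%; inconclusive means exactly half above 75%; inactive means most below 75%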;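 further: all wells also contain fluconazole at 8 µg/ml as a sub-toxic cotreatment; 0% = median of DMSO wells and 100% = median of geldanamycin control wells; wells of about 8 µL received 7.5 nL stock; the first replicate is given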
AF4-AF9 inh – MLL-AF4/AF9 protein interaction inhibition | AlphaScreen, biotin-AF4 peptide binding to FLAG-AF9 | inhibition, % at 10 µM | 350,000 compounds, 0.47% hits | AID 651704;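 active means every replicate reaching a set inhibition limit, whatever the replicate mean, cut at about 25% in these data; inconclusive means mean inhibition reaches that limit but some replicates miss it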;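 further: 0% = plate neutral control median and 100% = total signal loss; the record names both 10 and 1 µM as test concentration; the first replicate is given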
Target sequence (P42568 whole entry, looked up): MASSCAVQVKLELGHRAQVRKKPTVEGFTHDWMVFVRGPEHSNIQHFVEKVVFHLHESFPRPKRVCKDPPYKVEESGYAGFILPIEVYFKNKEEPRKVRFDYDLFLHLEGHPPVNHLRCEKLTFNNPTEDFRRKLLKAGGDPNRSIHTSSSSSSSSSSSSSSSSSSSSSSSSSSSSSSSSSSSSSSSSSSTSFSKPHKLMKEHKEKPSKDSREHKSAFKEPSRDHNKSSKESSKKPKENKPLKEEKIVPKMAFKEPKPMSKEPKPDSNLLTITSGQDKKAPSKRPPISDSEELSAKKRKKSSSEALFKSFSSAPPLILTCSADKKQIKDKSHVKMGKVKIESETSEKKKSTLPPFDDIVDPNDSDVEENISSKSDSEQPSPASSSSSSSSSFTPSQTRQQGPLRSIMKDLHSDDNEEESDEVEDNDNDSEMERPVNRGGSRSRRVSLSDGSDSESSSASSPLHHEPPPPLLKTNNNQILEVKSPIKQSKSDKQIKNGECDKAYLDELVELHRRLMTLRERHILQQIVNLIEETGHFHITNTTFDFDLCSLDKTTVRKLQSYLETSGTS
Vif A3G – inhibitors of Vif binding to APOBEC3G peptide, primary screen, biochemical, TR-FRET, GST-Vif 1-94, biotin-A3G peptide, dose response retest (AID 1117319); TR-FRET GST-Vif / biotin-A3G peptide binding; higher % means a stronger effect; test concentration not given here; strong numbers were not always called active; one-dose inhibition, %; IC50 in µM for titrated hits; 260,000 compounds, 0.57% hits;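 active means above the screen mean plus three standard deviations and confirmed in dose response; inconclusive means results disagree or hit not tested in dose response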;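 further: Vif residues 1-94 fused to GST binding biotinylated APOBEC3G peptide 110-148; 0% = full assay without inhibitor and 100% = GST in place of GST-Vif; retest series ran down from 100 µM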
T cruzi repl – blocks replication of Trypanosoma cruzi; 300,000 compounds, 1.4% hits; inhibition, % (test concentration not listed); T. cruzi beta-gal in NIH3T3, luminescence, 90 h;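 active means mean inhibition across valid replicates above about 55%, limit read from the data; inconclusive means mean below that limit but half or more replicates reach it; inactive means mean below it, under half of replicates reach it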;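 further: signal also drops with host cell toxicity which is not excluded here; 0% = plate median of DMSO wells and 100% = zero luminescence signal; higher percent means less beta-gal luminescence so fewer parasites; stock transfer was 50 nL into about 50 µL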
Bfl-1 A1 inh – inhibitors of the anti-apoptotic protein A1, read as caspase activation | MEF A1-2A-BIM cells, Caspase-Glo 3/7 luminescence, 3 h; percent of clofoctol response, vehicle zero | caspase activation, % (test concentration not listed) | 330,000 compounds, 0.066% hits | AID 2462;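 active means over half of replicate activation scores above 10%, or exactly half above 10 with the replicate mean above 10; inconclusive means replicate mean below 10 yet half the replicates above 10; inactive means over half of replicates below 10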;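 further: wells of about 30 µL received 50 nL stock; many hits fall short of the cut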
rRNA inh HTS – selective bacterial rRNA inhibition in E. coli | E. coli WT GFP vs humanized-ribosome RFP mutants, fluorescence, 24 h; active compounds read low; DMSO median 0, no signal -100 | 350,000 compounds, 1.6% hits | GFP signal change (wild-type ribosome), % (test concentration not listed);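 active means significant combined selectivity score with lowered wild-type GFP, culture density cut under 30%, mutant RFP and density less affected; inactive means any of these conditions unmet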; further: one replicate is shown; some compounds called inactive have numbers as strong as hits
RanGTP-Imp inh – disruptors of Ran-importin-beta complex formation – biochemical, FRET, CFP-Ran, YFP-importin-beta, homogeneous, primary screen; cell-free CFP-Ran/YFP-importin-beta FRET ratio; inhibition, % (test concentration not listed); 300,000 compounds, 1.1% hits; AID 2216;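 active means most replicates above 15%; inconclusive means exactly half above 15%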;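 further: 0% = DMSO wells and 100% = Ran loaded with GDP instead of GTP; wells of about 40 µL received 100 nL stock; the first replicate is given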
Beta cell apopt – beta cell apoptosis inhibition; protection from apoptosis, % (concentration not given with the values); 300,000 compounds, 0.8% hits; AID 435005; INS-1E cytokine-induced death, ATP luminescence, 48 h; percent of positive-control rescue, neutral wells zero;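 active means all replicates at 75% or more, or half of them and the mean; inconclusive means half reach 75% but not the mean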;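 further: 0% = cytokine-treated negative control wells and 100% = positive control rescue; higher means more ATP so stronger rescue from cytokine killing; wells of about 40 µL received 100 nL stock; the first replicate is given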
rRNA inh HTS OD600 – second read-out of rRNA inh HTS, no call of its own (marks repeat the call); OD600 change, %; measured here: OD600 growth;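 optical density of the mix in the first replicate; 0 = DMSO median and -100 = no signal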
rRNA inh HTS RFP – further read-out of rRNA inh HTS, marked with its call; RFP signal change, %; measured here: RFP humanized mutant strains;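 first replicate; 0 = DMSO median and -100 = no signal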
* = called active by the depositor; ? = inconclusive; / = no result given. This is a subset; rates above refer to the full screens.

Start of the listing, in advance:
SMILES	AF4-AF9 inh	rRNA inh HTS OD600	Beta cell apopt	Vif A3G	T cruzi repl	rRNA inh HTS	RanGTP-Imp inh	Calb FLC	Bfl-1 A1 inh	rRNA inh HTS RFP
Cc1nc(C)c(C(=O)N2CCCC(C(=O)c3ccc(Cl)cc3C)C2)s1 (stereo not given)	-0.6	-22	-1	0%	5	-2	-3.6	-13	-0.4	-0.1
COc1cc(/C=C2/SC(=S)N(CC(=O)O)C2=O)ccc1OCC(=O)Nc1ccc(C)c(C)c1	0.7	13	-2	/	-10	-2	2.3	-11	0.5	-0.2

Main list, from the start:
SMILES	AF4-AF9 inh	rRNA inh HTS OD600	Beta cell apopt	Vif A3G	T cruzi repl	rRNA inh HTS	RanGTP-Imp inh	Calb FLC	Bfl-1 A1 inh	rRNA inh HTS RFP
Cc1nc(C)c(C(=O)N2CCCC(C(=O)c3ccc(Cl)cc3C)C2)s1 (stereo not given)	-0.6	-22	-1	0%	5	-2	-3.6	-13	-0.4	-0.1
COc1cc(/C=C2/SC(=S)N(CC(=O)O)C2=O)ccc1OCC(=O)Nc1ccc(C)c(C)c1	0.7	13	-2	/	-10	-2	2.3	-11	0.5	-0.2
Cc1cc(C)c(S(=O)(=O)NCC(c2ccc3c(c2)OCO3)N2CCOCC2)c(C)c1 (stereo not given)	-0.8	-1	-11	/	5	-2	2.2	-11	0.3	3.1
FC(F)Oc1ccc(-c2csc(=Nc3cccnc3)n2CC2CCCO2)cc1 (stereo not given)	16	-56	16	0%	27	-34	-3.2	3	-0.5	-7.8
COc1ccc([C@H]2CC(=O)C=C(c3cc(C=O)ccc3OC)C2)cc1OC	-4.0	-12	-7	/	/	-8	/	/	0.9	3.5
CCOc1ccccc1NC(=O)c1cccc(S(=O)(=O)N(Cc2ccccc2)c2ccccc2OC)c1	-5.9	/	2	/	50	/	5.7	-10	1.0	/
CCOC(=O)c1cn(Cc2cccc(Cl)c2)nn1	0.0	10	-10	3%	3	4	-1.5	3	-0.1	2.8
COc1cccc(Nc2ncccc2C(=O)O)c1	/	/	3	?	-21	/	5.1	11	-3.7	/
Oc1ccc(Cl)cc1CNc1cccc2cccnc12	-0.6	-4	65	18%	0	44	5.4	2	-0.3	18
CCOC(=O)N/N=C/C(Cl)=C/c1ccccc1	2.4	-5	3	-1%	0	-12	0.3	66	-0.5	-1.3
CCOCC(=O)Nc1ccc(S(=O)(=O)N2CCC(c3nc4ccccc4[nH]3)CC2)cc1	2.2	-4	9	-5%	-5	-5	0.9	9	-0.7	5.0
CNC(=O)c1sc(-c2cccs2)nc1C	-2.0	-2	-6	/	-14	14	4.8	12	-0.3	0.3
CCC(C)c1ccc(NC(=O)c2cnn3c(C(F)F)cc(C)nc23)cc1 (stereo not given)	0.5	0	4	-6%	-5	-6	?	-23	2.0	0.6
COc1ccc(C(=O)OCCOc2cccc(Cl)c2)cc1S(=O)(=O)N1CCOCC1	17	-34	2	/	45	-3	1.5	9	-0.4	0.8
O=C(O)CNc1nc(-c2ccccc2)nc2ccccc12	-0.1	3	/	5%	-8	15	0.8	-13	0.2	-2.3
Cc1oc(-c2ccccc2Cl)nc1Cn1cccc1C1=NC(c2ccccc2)CO1 (stereo not given)	/	/	2	4%	29	/	-4.4	-3	0.4	/
COC(=O)CC(=O)N1CCN(c2ccc(Cl)c(Cl)c2)CC1	0.6	-25	-8	3%	-13	-24	0.1	2	0.2	-6.2
CC(=O)Nc1ccc(NC(=O)c2sc(-c3ccccc3)nc2C)cc1	-2.1	15	0	-3%	-2	11	-4.4	20	0.0	1.8
CCCNC(=O)c1ccc(OC)cc1OC	/	/	-11	6%	12	/	-1.4	47	-0.6	/
O=C(CCSc1ccccn1)c1ccccc1	-2.6	21	-8	-35%	19	11	1.8	-6	-0.1	2.4
CS(=O)(=O)c1ccc(Cl)c(NC(=O)COC(=O)CNC(=O)c2sc3ccccc3c2Cl)c1	-1.4	-10	-10	/	-14	-8	8.8	/	1.0	2.0
Cn1cc(C(=O)NCN2CCCCC2)c2ccccc21	/	/	-1	3%	-17	/	-0.9	1	0.5	/
COc1ccc(OC)c(NC(=O)CSc2ncccn2)c1	/	/	-14	1%	8	/	-0.2	-3	0.7	/
NC(=O)NC(=O)CC1S/C(=N/N=C/c2ccccc2)NC1=O (stereo not given)	-1.8	9	2	3%	-2	10	1.0	0	1.1	1.2
CCN(CC)CCN1C(=O)C(=O)/C(=C(/O)c2ccncc2)C1c1ccccc1 (stereo not given)	/	/	/	-3%	-2	/	1.9	-8	-0.5	/
Cc1ccc2oc3c(c(=O)c2c1)C(c1cccs1)N(CCCN(C)C)C3=O (stereo not given)	/	/	-7	/	8	/	?	4	0.5	/
O=C(Nc1sc2c(c1C(=O)NCC1CCCO1)CCCC2)c1cccs1 (stereo not given)	-15	-4	/	7%	40	1	-0.8	-1	0.0	20
CN(Cc1ccccc1)C(=O)c1ccc(NC(=O)Cc2cccc(NC(=O)C3CCN(C(=O)C4CCCC4)CC3)c2)cc1	3.1	-6	-1	/	/	-9	/	/	0.5	-0.6
CN(Cc1ccccc1Cl)C(=O)c1cc2ccccc2o1	-3.6	-54	-2	/	-10	-29	0.4	-28	0.9	4.3
Cc1nnc(NC(=O)c2csc3c2CCC(C)C3)s1 (stereo not given)	-3.3	16	-10	3%	-14	20	0.8	2	-0.7	-7.0
CCOc1ccc(NC(=O)CN(C)C(=O)c2cc(C)oc2C)cc1OCC	0.1	10	-3	3%	-10	1	-1.3	5	0.1	-1.3
O=C(Nc1ccccc1Cl)N(Cc1nc2ccccc2c(=O)[nH]1)Cc1cccs1	/	/	8	/	6	/	9.4	7	-0.1	/
COCCOC(=O)C1=C(C)Nc2ncnn2C1c1ccc(F)cc1 (stereo not given)	/	/	-6	0%	2	/	/	0	-0.4	/
Cc1ccccc1NC1=C(Cl)C(=O)OC1OC(=O)c1ccco1 (stereo not given)	5.3	1	-6	-3%	-8	-8	6.4	-7	-0.1	3.5
CC1SC(c2ccccc2Cl)NC1=O (stereo not given)	/	/	-4	0%	-25	/	-1.5	-3	-0.6	/
CCOc1ccc(-n2c(SCC(N)=O)nnc2-c2ccco2)cc1	0.3	-16	-1	-4%	-9	-10	-1.1	10	-0.4	-0.5
COC(=O)CC(NC(=S)NC(=O)c1ccccc1)c1ccc(Br)cc1 (stereo not given)	0.8	-12	3	-4%	18	4	-2.3	6	0.8	-3.9
Clc1ccccc1CSc1nncn1NC/C=C/c1ccccc1	-7.4	-79	0	/	13	-54	2.4	7	0.7	-34
COc1cc(OC)cc(OC(=O)C2CCN(C(=O)c3ccc(Cl)cc3)CC2)c1	-4.5	-17	-4	-8%	/	2	/	/	0.6	-0.6
Cc1ccc(NC(=S)N=Nc2c(O)n(C)c3ccc(S(=O)(=O)N4CCOCC4)cc23)cc1C	/	/	/	4%	37	/	-2.4	0	-1.4	/
[N-]=[N+]=N[C@@H](CCN1CC[C@H](O)CCC1=O)c1ccccc1	-1.2	-3	1	/	-14	3	1.6	-7	-2.6	0.6
CCOc1ccc(S(=O)(=O)Nc2cc(S(=O)(=O)N3CCOCC3)ccc2OC)cc1	2.0	-2	0	-5%	/	-3	/	/	0.1	0.9
CCOC(=O)C1=C(CSCc2ccccc2)NC(=O)NC1c1cc(C)ccc1C (stereo not given)	/	/	-1	-5%	10	/	-0.8	19	-1.6	/
O=C(N/N=C1/CC2C=CCC12)c1cccs1 (stereo not given)	-2.6	4	/	0%	7	4	-8.3	-4	/	1.3
Cc1ccccc1C(=O)N1CCC(C(=O)Nc2ccc(S(=O)(=O)N3CCCCC3)cc2)CC1	0.2	-24	0	-4%	9	-16	6.5	-12	0.2	-2.5
NC(=O)CSc1nnc(-c2ccc(S(=O)(=O)N3CCOCC3)cc2)n1CC1CCCO1 (stereo not given)	/	16	-7	1%	-2	20	-1.0	7	0.9	1.6
CCN=C1SC(CC(=O)Nc2sc3c(c2C#N)CCCC3)C(=O)N1CC (stereo not given)	/	/	10	-2%	5	/	0.9	-5	-0.3	/
Cc1ccc(NC(=O)COc2coc(CN3CCN(Cc4ccccc4)CC3)cc2=O)cc1	-0.7	7	/	0%	45	8	3.5	33	-0.1	0.3
CCCOP(=O)(c1ccc(N(C)C)cc1)C(O)c1cccnc1 (stereo not given)	/	/	-4	25%	-5	/	?	10	0.3	/
O=C(Cc1ccc(Br)cc1)Nc1cccc(S(=O)(=O)N2CCOCC2)c1	1.9	-22*	2	5%	/	-30*	/	/	-2.2	-0.5*
Cc1onc(-c2c(F)cccc2Cl)c1C(=O)N1CCN(c2ncc(Br)cn2)CC1	5.2	-9	/	/	7	-18	1.4	7	1.0	0.3
Cc1ccc(CNC(=O)CCC(=O)Nc2nnc(C(C)C)s2)cc1	-11	5	-5	/	-9	-2	-2.4	1	0.9	-3.6
O=C1CN(C(=O)c2ccc(Br)o2)C(c2ccccc2)c2cc(F)ccc2N1 (stereo not given)	13	-17	-3	9%	25	-4	-3.5	-4	0.0	2.1
COc1ccc(Cl)cc1C(=O)NNC(=O)c1nc2nc(C)cc(C)n2n1	4.8	2	-2	10%	-13	2	1.0	14	0.7	-2.3
COc1ccc(NC(=O)Nc2ccc(N(C)C)cc2)cc1	/	/	10	?	-2	/	12	-5	-5.7	/
COc1ccc(/C=C2\Sc3ccc(C(=O)NCCN4CCCCCC4)cc3N(C)C2=O)cc1	14	-27	-4	/	21	-6	0.3	4	-1.0	13
COc1cccc(-c2cc(C(=O)N3CCN(C(=O)c4ccco4)CC3)on2)c1	-3.5	-11	-2	/	2	-7	0.2	48	?	-1.5
O=C(O)C1CCC(=O)N1C1CCCC1 (stereo not given)	/	/	4	2%	/	/	/	9	0.9	/
CCOc1ccccc1CN1CCCC(C(=O)c2ccc(OC)c(OC)c2)C1 (stereo not given)	3.7	-2	7	/	38	-8	0.9	-8	1.2	-4.1
O=C(CC1C(=O)NCCN1CC1CCCCC1)NCc1ccc(Cl)cc1 (stereo not given)	0.4	-53	1	0%	14	-36	2.0	-25	0.8	8.5

Source: PubChem (several laboratories)
